YjeE inh: YjeE (TsaE) inhibition, E. coli; P0AF67; purified YjeE, fluorescence polarisation of a bound ADP probe; Potency, µM; 71,000 tested, 0.05% active; AID 605; active = well fitted falling curve; inconclusive = weaker or top-dose-only fall, or a rising curve; inactive = flat or poorly fitted curve;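 further: top concentration of the series not given in the record; excess ADP was the control for the full effect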
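Purified YjeE (10 uM) with BODIPY Texas Red-labeled ADP probe (2 uM); compounds pin-transferred, 15 min at room temperature. Binding inhibition read as decreased fluorescence polarization; ADP titration as control.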
PK Bst: modulators of Bacillus stearothermophilus pyruvate kinase. partly purified Bacillus stearothermophilus pyruvate kinase, luminescence ATP production; ribose 5-phosphate activator present at AC10. Potency, µM. 51,000 tested, 1.2% active. AID 361; in the data active means potency below about 11 µM; inconclusive means mostly about 12 µM to 25 µM; inactive means weaker than that;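 the screen sought inhibitors and activators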;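 further: potency means the concentration at half of the fitted maximal effect; scaled between full activation by ribose 5 phosphate and full inhibition by luteolin; about four in five hits inhibit and the cells do not say which; series up to 57 µM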
Active calls of the source: *; i = inactive; ? = inconclusive; . = not tested or not shown. A portion of the library (hit frequency here may not be typical).

compound | PK Bst | YjeE inh
COc1cccc(OCC(=O)Nc2ccccc2NC(C)=O)c1 | >57 | i
CCOC(=O)N1CCN(S(=O)(=O)c2ccc(F)cc2)CC1 | >57 | i
CCCCN(C)C(=O)C1CCC(=O)N(c2cc(OC)c(OC)c(OC)c2)C1c1ccc(OC)cc1 (configuration not stated) | >57 | i
Cc1cccc(NC(=O)COc2ccc(Br)cc2C)n1 | . | i
O=C(NC12CC3CC(CC(C3)C1)C2)c1ccc(=O)oc1 | >57 | i
Cc1cccn2c(=O)c3cc(C(=O)N(C)C)n(C)c3nc12 | >57 | i
c1ccc2occc2c1 | . | i
Cc1ccc2c(c1)c1c(n2CC2COC(C)(C)O2)C(=O)CCC1 (configuration not stated) | . | i
O=C(C1CCN(C2CC(=O)N(c3cccc(Cl)c3)C2=O)CC1)N1CCCC1 (configuration not stated) | >57 | i
COCCN1Cc2cccc(C(=O)NCc3ccccc3OC)c2C1=O | >57 | i
Cc1ccnc(N2CCC(C(=O)NC3CCCCCC3)CC2)n1 | >57 | i
N=c1c(C(=O)NCc2ccco2)cc2c(=O)n3ccccc3nc2n1Cc1ccccc1 | . | i
CC(C)(C)c1csc(NC(=O)c2ccc(Cl)s2)n1 | i | i
CCc1ccc(CCC(=O)O)nc1 | . | i
CC1CN(C2CCN(S(=O)(=O)Cc3ccccc3)CC2)CC(C)O1 (configuration not stated) | >25.6 | .
Cc1cc(Cl)ccc1OC(C)C(=O)Nc1ccccc1N1CCOCC1 (configuration not stated) | >57 | i
COCC(=O)N1CCC2(CC1)CN(c1ccccc1)C2 | . | i
CC(C)(C)NC(=O)c1cnn2c1NC(c1ccc(F)cc1)CC2C(F)(F)F (configuration not stated) | . | i
Cn1c(CCCNC(=O)c2cccs2)nc2ccccc21 | >57 | i
C=C(C)CSc1nnc([C@@H]2CCCN2C(=O)OC(C)(C)C)o1 | >57 | i

compound | PK Bst | YjeE inh
Nc1c(C(=O)c2cccs2)oc2ccccc12 | ? | i
O=C(Nc1ccc(S(=O)(=O)Nc2cnc3ccccc3n2)cc1)c1ccc(Br)o1 | >57 | i
COc1ccc(Oc2ncnc3c2ncn3Cc2ccccc2)cc1 | >57 | i
O=C(Nc1ccc2c(c1)nc1n2CCN(Cc2ccccc2)C1)c1cccs1 | . | i
CCOC(=O)CC(=O)Nc1ccccc1C(=O)O | . | i
CCOc1cccc(/C(O)=C2/C(=O)C(=O)N(CCOC)C2c2ccncc2)c1 (configuration not stated) | >57 | i
CCN1CCN(C(=O)CS(=O)Cc2nc(-c3ccc(OC)cc3)oc2C)CC1 (configuration not stated) | . | i
CCc1c(C)nc(N)nc1OCC(F)(F)C(F)F | . | i
CC(C)CC1N=C2c3ccccc3N=C(SCc3cc(=O)n4ccccc4n3)N2C1=O (configuration not stated) | >57 | i
CCOC(=O)c1ccc(N2C(=O)CC(N3CCN(C/C=C/c4ccccc4)CC3)C2=O)cc1 (configuration not stated) | . | i
O=C(NCc1cccs1)Nc1cccs1 | >57 | i
CN(C)S(=O)(=O)n1cnc2ccccc21 | >57 | i
CCOC(=O)N1CCN(C(=O)C2CCN(S(=O)(=O)N3CCCC3)CC2)CC1 | >57 | i
N#CC1=C2SCN(Cc3ccccc3)CN2C(=O)CC1c1ccccc1F (configuration not stated) | . | i
C=CCOc1ccc(/C(O)=C2\C(=O)C(=O)N(CCN(C)C)C2c2cccs2)cc1 (configuration not stated) | >11.4 | .
CCN(CC(=O)N1CCCCCC1)S(=O)(=O)c1ccc(Cl)cc1 | . | i
CCCn1c(=O)c2c(c3ccccc31)OC(C)C(=O)N2 (configuration not stated) | >57 | i
O=C(O)Cn1cccc1C(=O)c1ccccc1 | >57 | i
O=c1[nH]ncc2ccccc12 | . | i
CCOc1ccc(CCNc2nc3c(c(=O)n(C)c(=O)n3C)n2CC)cc1OCC | >57 | i

compound | PK Bst | YjeE inh
Cc1ccc2ccc3cccc4ccc1c2c34 | . | i
Nc1ccc(Cl)cc1[N+](=O)[O-] | . | i
CCN(CC)CCCN1C(=O)C(O)=C(C(=O)c2cccs2)C1c1ccccn1 (configuration not stated) | >57 | i
CCNC(=O)Cc1ccc(NS(=O)(=O)c2ccc(F)cc2)cc1 | >57 | i
O=C(Cn1cnc2ccccc2c1=O)c1ccc2c(c1)OCCO2 | . | i
CCOC(=O)c1c(C)c(-c2ccccc2)n(CC(=O)N2CCCC2)c1C | . | i
N#CC1=C(N)C(C#N)(C#N)[C@H](c2ccoc2)[C@H]2CN(Cc3ccccc3)CC=C12 | >57 | i
CN1CCN(S(=O)(=O)c2ccc3[nH]cc(C(=O)O)c(=O)c3c2)CC1 | >57 | i
Cn1c(Cc2cccs2)nnc1SC/C=C/c1ccccc1 | >57 | i
CCOC(=O)c1nnn(-c2nonc2N)c1-c1ccc(OC)cc1 | >57 | i
Cc1ccnc(SCCn2c(N3CCN(C)CC3)nc3c2c(=O)[nH]c(=O)n3C)n1 | >57 | i
COc1ccc(N=CC2=C(O)CC(C)(C)CC2=O)cc1 | . | i
COc1ccc(N(C)S(=O)(=O)c2cccc3cccnc23)c(OC)c1 | . | i
Cc1ccc(N2CC(C(=O)Nc3cccc(F)c3)CC2=O)cc1 (configuration not stated) | . | i
CC(=O)Nc1cc(C(=O)O)ccc1S(=O)(=O)c1ccc(Cl)cc1 | >57 | i
COc1cccc(NC(=O)Cc2nnc(SCC(=O)c3ccccc3)n2C)c1 | >57 | i
Cc1ccccc1-c1ccc(Nc2ccc(N3CCOCC3)cc2)nn1 | >57 | i
CCOC(=O)c1cc2sccc2n1CC(=O)N1c2ccccc2CC1C (configuration not stated) | >57 | i
O=C(O)c1cc(S(=O)(=O)O)ccc1O | >57 | i
CC(=O)c1ccc(OC(C)C)c(CSc2nc(O)cc(=O)[nH]2)c1 | . | i

compound | PK Bst | YjeE inh
COC(=O)C(C)Sc1nnc(SC(C)C(=O)OC)s1 (configuration not stated) | >57 | i
O=C(OCc1nnc(-c2ccc(Cl)cc2)o1)c1ccncc1 | i | i
C[C@@]12C(=O)OC(=O)[C@@]1(C)[C@@H]1CC[C@@H]2O1 | . | i
N#CC1=C(N)OC(c2ccccc2)=C(C#N)C1c1ccc2c(c1)OCO2 (configuration not stated) | >57 | i
CN(CCc1ccc(Cl)c(Cl)c1)CCN1CCCCCC1 | . | i
O=C(/C=N/O)NCCCN1CCOCC1 | >25.6 | .
CCOc1cc(S(=O)(=O)n2nc(C)cc2C)ccc1F | >57 | i
CCC(C)(C(=O)NC1CCCC1)N(Cc1cccs1)C(C)=O (configuration not stated) | >57 | i
Cn1c(=O)oc2cc(S(=O)(=O)NC3CCN(Cc4ccccc4)CC3)ccc21 | . | i
CCCc1nc(SCC(=O)Nc2cc(C)on2)c2c(=O)n(C)c(=O)n(C)c2n1 | . | i
COc1ccc(NC(=O)c2cc(CN3C(=O)c4ccccc4C3=O)ccc2OC)cn1 | >57 | i
CC(=O)c1ccc2c3c(cccc13)C(=O)N(c1c(C)nn(C)c1C)C2=O | >57 | i
Fc1ccccc1Cn1nnc2c(NCCc3ccccn3)ncnc21 | >57 | i
NC(=O)C1CCN(S(=O)(=O)c2cccc(S(=O)(=O)N3CCCCC3)c2)CC1 | >57 | i
C=CCN(C(=O)Nc1ccccc1)C1CC(=O)N(c2ccc(OC)cc2)C1=O (configuration not stated) | >57 | i
C1OCOCO1 | . | i
O=C(Nc1cccnc1)c1cc(-c2ccco2)on1 | >57 | i
COc1cc2nc(NCC3CCCO3)n3nc(-c4cccnc4)nc3c2cc1OC (configuration not stated) | >57 | i
Cc1cc(/C(O)=C2\C(=O)C(=O)N(CCN(C)C)C2c2ccncc2)ccc1OCc1ccccc1 (configuration not stated) | >25.6 | .
Cc1cc(C)nc(NC2=NCC(=O)N2CCc2c[nH]c3ccccc23)n1 | >57 | i

compound | PK Bst | YjeE inh
COc1ccc(-c2nc3cnc(N4CCOCC4)nc3n(CCC#N)c2=O)cc1 | . | i
Cc1ccc(C(=O)NCc2ccc3c(c2)OCO3)cc1N1CCCC1=O | . | i
COc1cccc(-c2nc3ccc(O)cc3c(=O)o2)c1 | 11.2* | i
Cc1[nH]nc2c1C1(CCN(Cc3ccccc3)CC1)C(C#N)=C(N)O2 | >11.4 | i
O=C(NC1CCCc2ccccc21)C1CCN(c2nnc(-n3cccc3)s2)CC1 (configuration not stated) | . | i
O=C(O)CCC(C(=O)O)n1c(O)c(C2=c3ccccc3=NC2=O)sc1=S (configuration not stated) | . | i
CCC(C)n1c(SC(C)C#N)nc2ccccc2c1=O (configuration not stated) | >57 | i
O=C(COc1ccccc1)Nc1ccccc1N1CCN(c2ccc(F)cc2)CC1 | >57 | i
Cn1c(C(O)c2ccccc2)nc(Cl)c1Cl (configuration not stated) | . | i
COC(=O)C(C)Sc1nc2c([nH]c3ccccc32)c(=O)n1C (configuration not stated) | >57 | i
COc1ccc(C(=O)Nc2cccc3c2C(=O)NC3=O)cc1S(=O)(=O)N1CCOCC1 | >57 | i
COc1ccc(CNc2nc3c(c(C(F)(F)F)n2)CCCCC3)cc1 | >57 | i
CCOC(=O)c1cn2c3c(c(F)c(F)c(F)c3c1=O)SC(N1CCCC1)=N2 | >57 | i
CCOc1ccc(C2=Nn3c(nnc3-c3ccccn3)SC2)cc1 | >25.6 | .
CSc1cccc(NC(=O)CSc2nc3ccccc3o2)c1 | >57 | i
CCn1c(SCC(=O)NCc2cccs2)nc2c1c(=O)n(C)c(=O)n2C | >57 | i
CCN(CC)CCN1C(=O)Cn2c(C)c(C)c3cccc1c32 | >57 | i
O=C(C1COc2ccccc2O1)N1CCOCC1 (configuration not stated) | . | i
CC(C)C(O)(C(C)C)C(C)C | . | i
COCCNC(=O)Cn1nc(-c2ccccc2OC)ccc1=O | >57 | i

Next part; it opens with the 5 that closed the last part.
compound | PK Bst | YjeE inh
CCn1c(SCC(=O)NCc2cccs2)nc2c1c(=O)n(C)c(=O)n2C | >57 | i
CCN(CC)CCN1C(=O)Cn2c(C)c(C)c3cccc1c32 | >57 | i
O=C(C1COc2ccccc2O1)N1CCOCC1 (configuration not stated) | . | i
CC(C)C(O)(C(C)C)C(C)C | . | i
COCCNC(=O)Cn1nc(-c2ccccc2OC)ccc1=O | >57 | i
CCn1cc(C(=O)OCc2ccc(F)cc2)c(=O)c2ccc(C)nc21 | . | i
COc1cc2c(C(=O)NCc3ccc(C)o3)cn(CC(C)C)c(=O)c2cc1OC | >57 | i
COc1ccc(C(=O)N2CCC3(CC2)CCN(c2ccccn2)CC3)cc1 | . | i
CCCc1cc(=O)[nH]c(SCC(=O)NC(=O)OCC)n1 | >57 | i
CC1=CC(c2ccccc2)n2nc(N3C(=O)c4ccccc4C3=O)nc2N1 (configuration not stated) | >57 | i
CN(C)c1ccc(-c2ccc3ncnc(N4CCNCC4)c3c2)cc1 | . | i
Cc1cc(NC(=O)c2cc(-c3cccnc3)nc3c(C)c(C)ccc23)no1 | >57 | i
O=C(Nc1ccccc1C(=O)Nc1ccccc1C(=O)NCc1ccco1)c1ccco1 | >57 | i
Clc1cccc(-c2nnc3sc(-c4ccc5c(c4)OCO5)nn23)c1 | >57 | i
COc1cccc(NC(=O)N2CCCC2C(=O)Nc2ccc3c(c2)OCO3)c1 (configuration not stated) | >57 | i
Cc1cccc(N2CCN(C(=O)Cn3ccc4ccccc4c3=O)CC2)c1C | >57 | i
CCS(=O)(=O)N1CCC(C(=O)NC2CCCCC2)CC1 | >57 | i
C=CCc1cccc(CNc2nc3ccccc3n2CC)c1O | >57 | i
COc1ncc2nc(-c3cc(F)cc(F)c3)c(=O)n(-c3ccccc3)c2n1 | . | i
C=CCn1cnc2c(c1=O)c1nc3ccccc3nc1n2/N=C/c1cc(OC)c(OC)c(OC)c1 | >57 | i
Cc1ccc(CN2CC(C(=O)Nc3ccc(S(=O)(=O)Nc4cc(C)nc(C)n4)cc3)CC2=O)cc1 (configuration not stated) | >57 | i
Cc1cc(Cl)c(S(=O)(=O)NCCC(=O)O)cc1OCC(N)=O | >57 | i
CCCCNC(=O)c1ccccc1NS(=O)(=O)c1ccc2c(c1)OCCO2 | >57 | i
O=C1NC2(CCCC2)N=C1c1ccc(Cl)cc1 | >57 | i
COC(=O)c1ccc(NC(=O)Cn2nc(SC)n(N)c2=S)cc1 | >57 | i

Sorted by molecular weight (largest number first): part of the list above.
compound | PK Bst | YjeE inh
COc1cc2c(C(=O)NCc3ccc(C)o3)cn(CC(C)C)c(=O)c2cc1OC | >57 | i
Cc1cccc(N2CCN(C(=O)Cn3ccc4ccccc4c3=O)CC2)c1C | >57 | i
Clc1cccc(-c2nnc3sc(-c4ccc5c(c4)OCO5)nn23)c1 | >57 | i

Other records
compound | PK Bst | YjeE inh
O=c1oc2ccccc2cc1-c1nc2ccccc2o1 | ? | i
Cc1ccc2c(c1)nnn2C1CCN(C(=O)c2cccs2)CC1 | >57 | i
CCOC(=O)COc1ccc(C(=O)NC2CCCCC2)cc1 | >57 | i
Cc1ccc(O)c(C(=O)c2cnc3c(c2)CN(CCC(C)C)C(=O)N3)c1 | >57 | i
Cc1cc(C)nc(NS(=O)(=O)c2ccc(-n3cccc3)cc2)n1 | >57 | i
COc1cccc2sc(N3CCN(c4nc5ccccc5s4)CC3)nc12 | >57 | i
CSCCC(Nc1nc2ccccc2s1)C(=O)O (configuration not stated) | >57 | i
